# Assay outcomes (PubChem)
# gsp ag = qHTS for Agonist of gsp, the Etiologic Mutation Responsible for Fibrous Dysplasia/McCune-Albright Syndrome: qHTS | gsp mutant cells, cAMP HTRF, 30 min; control for the full effect not named in the record | Potency, µM (highest dose often 76.9 µM), inactives show at the highest dose activation (cAMP increase), most hits filed as activators | 340,000 tested, 0.13% active; active = well fitted activation curve with a large enough effect; inconclusive = small, poorly fitted or top-dose-only effect, or another doubt; inactive = no such curve, though single readings can be large or run the other way; cell line not stated here;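 further: phosphodiesterase inhibitor Ro 20-1724 added with compounds to block cAMP breakdown; potency means the concentration at half of the fitted maximal effect; nearly all actives have a fitted effect of over 60% in size; about a fifth of the inactives were tested at one dose only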
#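 Cells in DMEM/10% FBS with G418 were pretreated with compounds in DMSO plus […] (300 uM stock) for 30 min at 37C. cAMP was measured by HTRF (cAMP-d2 plus anti-cAMP antibody-K) after 30 min at room temperature.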
# TRPML1 blocker = qHTS for Inhibitors of the Human Mucolipin Transient Receptor Potential 1 (TRPML1); Mucolipin-1 (Homo sapiens), Q9GZU1; TRPML1-inducible cells, Ca2+ dye fluorescence, FDSS; hits give low values; inhibition of EC80 agonist-evoked calcium signal; activity change, negative = inhibition, % (test concentration not listed); 390,000 tested, 0.02% active; in the data active means activity change below about -50%; inconclusive means about -30% to -50%; inactive means above about -30%;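 further: stimulus is agonist 54-4 at its EC80 concentration; on the % scale 0 is the no-effect control and ±100 the full control effect; compound concentration not given in the record; the text of the record puts the active cut at -80%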
# Target sequence (Q9GZU1 whole entry, looked up): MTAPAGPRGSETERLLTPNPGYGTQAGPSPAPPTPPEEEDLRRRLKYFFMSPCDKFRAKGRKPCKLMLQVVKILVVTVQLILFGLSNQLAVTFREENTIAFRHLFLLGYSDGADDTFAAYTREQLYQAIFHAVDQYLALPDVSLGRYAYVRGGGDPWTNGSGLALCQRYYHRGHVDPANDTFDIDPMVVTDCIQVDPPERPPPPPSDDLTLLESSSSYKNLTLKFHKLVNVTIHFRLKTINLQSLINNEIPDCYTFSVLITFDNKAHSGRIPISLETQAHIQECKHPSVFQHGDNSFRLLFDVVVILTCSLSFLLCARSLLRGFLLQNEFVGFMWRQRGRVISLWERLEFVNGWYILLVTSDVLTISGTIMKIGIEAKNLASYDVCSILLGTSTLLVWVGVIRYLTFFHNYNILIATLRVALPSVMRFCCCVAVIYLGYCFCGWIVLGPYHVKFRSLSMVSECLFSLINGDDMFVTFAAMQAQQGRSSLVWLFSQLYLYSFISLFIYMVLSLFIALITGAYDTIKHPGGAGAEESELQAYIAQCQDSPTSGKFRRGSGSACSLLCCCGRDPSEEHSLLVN
#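 Tet-induced TRPML1-DL cells loaded with Ca8 no-wash calcium dye were read kinetically on FDSS. Compound addition was followed by EC80 agonist 54-4 (4 uM final); inhibition was read over 110 s.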
# gsp antag = qHTS for Antagonists of gsp, the Etiologic Mutation Responsible for Fibrous Dysplasia/McCune-Albright Syndrome: qHTS. AID 624288, 2012. gsp-mutant cells, cAMP HTRF, 30 min; control for the full effect not named in the record. 340,000 tested, 0.4% active. Potency, µM (titrated, usually from 76.9 µM), for inactives: at the highest dose activity change, negative = inhibition, hits mostly inhibitors; active = falling curve of any shape with a large fitted effect; inconclusive = falling curve, mostly with a smaller effect; inactive = flat or rising curve; cell line not stated here;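 further: intracellular cAMP measured with PDE inhibitor Ro 20-1724 present during compound exposure; potency means the concentration at half of the fitted maximal effect; on the % scale 0 is the no-effect control and ±100 the full control effect; nearly all actives have a fitted effect of over 65% in size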
#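 HTRF cAMP read-out (cAMP-d2 plus anti-cAMP antibody-K in lysis buffer, 30 min RT). Before lysis, cells are exposed to compounds with […] for 30 min at 37C in DPBS containing Ca/Mg, BSA and Tween 20.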
# Menin MLL FP FL = qHTS Assay for Inhibitors Targeting the Menin-MLL Interaction in MLL Related Leukemias: Competition With Fluorescein Labeled MLL-derived Peptide | FP activity change, % at 61.4 µM | AID 1766, 2009 | 290,000 tested, under 10 active | Fluorescence polarization, fluorescein-MLL peptide displacement from menin; inconclusive = falling polarisation curve, or a change in total fluorescence; inactive = total fluorescence flat and polarisation flat or rising; no compound was filed as active; the % refers to the polarisation; negative = inhibition;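 further: % of control where 0% means no effect; inhibitors lower the polarisation; unlabelled MLL peptide was the positive control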
# TRPML1 ag = qHTS for Agonists of the Human Mucolipin Transient Receptor Potential 1 (TRPML1). Mucolipin-1 (Homo sapiens), Q9GZU1. TRPML1-expressing cells, Ca2+ dye fluorescence, FDSS; host cell line not named in the record; reference of the full effect not given here. activation, % (concentration not given with the values). 410,000 tested, 0.12% active; in the data active = activation above about 50%; inconclusive = about 30% to 50%; inactive = below about 30%; further: 0% is about no effect; the text of the record puts the active cut at 80%
#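 Kinetic FDSS Ca2+ read in Tet-induced TRPML1-DL cells (ABD Ca8 dye plus quencher, 45-90 min RT loading): baseline, then compound, then 110 s agonist window; EC80 agonist 54-4 at 4uM final added afterwards for a 110 s antagonist window.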
# ClpP mod = qHTS Assay for Activators of ClpP | ATP-dependent Clp protease proteolytic subunit (Bacillus subtilis (strain 168)), P80244 | purified B. subtilis ClpP, FRET peptide cleavage, 20 min | Potency, µM (titrated, usually from 57.5 µM), without a hit: at the top dose activity change, negative = active | 340,000 tested, 1.9% active | AID 651965, 2013; active = well fitted falling curve with a large enough effect; inconclusive = small, poorly fitted or top-dose-only effect; inactive = no such curve, though single readings can be large or run the other way; further: potency means the concentration at half of the fitted maximal effect; the source files actives as falling curves though it sought activators and does not explain the sign; nearly all actives have a fitted effect of over 65% in size; many hits overshoot -100%
# Target sequence (P80244 whole entry, looked up): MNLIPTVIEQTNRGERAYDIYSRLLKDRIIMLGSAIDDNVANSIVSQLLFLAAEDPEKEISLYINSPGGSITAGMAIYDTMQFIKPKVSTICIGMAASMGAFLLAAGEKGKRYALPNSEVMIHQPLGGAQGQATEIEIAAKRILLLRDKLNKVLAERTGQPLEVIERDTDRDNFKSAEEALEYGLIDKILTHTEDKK
#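 Purified B. subtilis ClpP, 10 microg/mL final in Tris/HCl pH8 with KCl, BSA, glycerol and Tween-20, cleaved an Abz/nitrotyrosine-quenched decapeptide. Fluorescence (ex 320, em 430) was read at 0 and 20 min at room temperature. Delta was normalized to 5.8 microM ADEP and DMSO/no-enzyme controls.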
# * hit, by the source's call; ? = inconclusive; . = no result given; [ ] = dose if it differs, or a comment.
SMILES,gsp ag,TRPML1 blocker,gsp antag,Menin MLL FP FL,TRPML1 ag,ClpP mod
COc1cc(CC(NC(C)=O)C(=O)NC2CCN(C(=O)Nc3ccccc3Cl)CC2)cc(OC)c1 (centres undefined),-37%,-12,14%,-0.4,1.4,-1.5%
CC(=O)N1c2ccc(S(=O)(=O)N3CCCCC3)cc2CC1C(=O)Nc1cccc(C)c1 (centres undefined),-45%[inhibitor],35,-25%,.,0.9,0.4%
O=C(Cc1ccccc1)Nc1cccc(-c2nc3cccnc3s2)c1,.,-3,.,.,2.3,35µM*
CCCC[n+]1ccn(C2=C([O-])c3ccccc3C(=O)/C2=N\S(=O)(=O)c2ccc(Br)cc2)c1,22%,-9,-3%,0.7,1.3,-3.5%
CNc1cnn(-c2ccc(C)cc2)c(=O)c1Sc1ccc(C)cc1,?,28,?,-2.1,-0.9,-0.3%
COc1ccc(CNC(=O)Cc2c(C)c3cc4c(C)coc4c(C)c3oc2=O)cc1OC,.,8,.,.,-0.8,-18%
CC1CC(=O)c2cnc(Nc3ccccc3)nc2C1 (centres undefined),4%,-3,2%,7.1,0.4,-12%
Cc1ccccc1Oc1nc2c(c(=O)n(C)c(=O)n2C)n1Cc1ccc(Br)cc1,.,1,.,.,0.7,-3.4%
CC(C)Nc1nc(NC(C)C)nc(Nn2cnnc2)n1,-2%,8,1%,-1.4,0.1,.
CCOC(=O)C1CCCN(c2ccc(NC(=O)c3snc4c(=O)[nH]cnc34)cc2)C1 (centres undefined),-22%,4,-24%,-1.9,-0.5,-0.1%
COCCCNC(=O)c1cc(OC)c(OC)c(OC)c1,0%,14,8%,5.4,-0.2,-0.6%
O=C(Nc1ccccn1)c1cc(-n2cnnc2)ccc1Cl,8%,13,-2%,3.3,0.5,-13%
CCCC(=O)Nc1c2c(nn1-c1ccc([N+](=O)[O-])cc1)CS(=O)(=O)C2,-8%,-8,-7%,3.8,-0.8,0.7%
COc1ccc(-c2csc3nc(C)nc(N4CCCCC4)c23)cc1OC,-7%[15.4 µM],6,-72%,-0.2,1.1,.
Cc1ccnc(NC(=O)CCC(=O)N(CC(=O)NC(C)(C)C)c2ccc3c(c2)OCO3)c1,-7%[15.4 µM],10,.,0.4,-0.2,.
CCOC(=O)c1c(-c2ccccc2)oc2ccc(OCC(O)CN(C)C)cc12 (centres undefined),-13%[15.4 µM],5,15%,0.6,0.2,.
CCOC(=O)c1c(NC(=O)Cn2nnc(-c3ccc(Cl)cc3)n2)sc(C)c1C,-17%,11,-2%,2.3,0.0,25µM*
CN(C(=O)c1ccncc1)c1nnc(-c2cnccn2)s1,?,0,19%,0.5,-0.7,4.3%
CCc1ccc(NC(=O)CS(=O)CC(=O)Nc2ccc(N3CCOCC3)cc2)cc1 (centres undefined),0%,16,5%,-2.6,-0.5,.
Cc1ccn2c(=O)cc(COc3ccc(NC(=O)c4ccccc4F)cc3)nc2c1,.,6,.,.,0.3,-2.7%
CCOC(=O)N1CCC2(CC1)C(C#N)=C(N)OC1=C2C(=O)CC(C)C1 (centres undefined),-12%,3,2%,2.8,-0.3,0.4%
CCOC(=O)c1c(NC(=O)CSc2nnnn2C)sc(C(=O)N(C)C)c1C,4%[15.4 µM],26,-1%,1.9,-0.2,.
Cc1nc2cc(-c3ccccc3)[nH]n2c(=O)c1C,-17%,1,-2%,-0.1,-1.1,4.1%
Cc1ccc(NC(=O)CSc2nc3ccccc3c3nc4ccccc4n23)cc1,26%,30,14%,4.1,1.0,-3.6%
CC(NS(C)(=O)=O)C(c1cccs1)N1CCN(c2ccc(F)cc2)CC1 (centres undefined),?,-12,1%,-0.5,0.2,-2.1%
COc1ccc(C2C=C(c3ccccc3)Nc3nc(NS(=O)(=O)c4ccc(C)cc4)nn32)cc1 (centres undefined),.,14,.,.,1.8,?
COc1ccc(N(C(C)C(=O)Nc2cccnc2)S(C)(=O)=O)cc1 (centres undefined),14%[15.4 µM],-13,-9%,2.3,1.4,.
CC(=O)N1CCOc2ccc(S(=O)(=O)N3CCC(C(=O)NCc4ccccc4)CC3)cc21,-18%,33,8%,.,-0.4,1.0%
Cc1cc(C)cc(Nc2ncc3c(n2)CCCC3=O)c1,28%,9,-3%,-0.1,2.2,-4.1%
CCOC(=O)C1=C(COC(=O)/C=C/c2cccc([N+](=O)[O-])c2)NC(=O)NC1C (centres undefined),29%[15.4 µM],-10,-2%,.,1.3,.

# In a second layout: 2 of the compounds above.
Compound | gsp ag | TRPML1 blocker | gsp antag | Menin MLL FP FL | TRPML1 ag | ClpP mod
CC1CC(=O)c2cnc(Nc3ccccc3)nc2C1 (centres undefined) | 4% | -3 | 2% | 7.1 | 0.4 | -12%
Cc1ccccc1Oc1nc2c(c(=O)n(C)c(=O)n2C)n1Cc1ccc(Br)cc1 | . | 1 | . | . | 0.7 | -3.4%

# Additional records
SMILES,gsp ag,TRPML1 blocker,gsp antag,Menin MLL FP FL,TRPML1 ag,ClpP mod
C/C=C(\C)CN1CCC(Oc2ccc(C(=O)NCc3ccccn3)cc2)CC1,11%,2,16%,.,0.1,-1.2%
Cc1cc(C(=O)COC(=O)c2ccc(O)cc2)c(C)n1-c1ccccc1F,10%[15.4 µM],3,9%,-0.4,3.4,.
CC(C)C(=O)Nc1ccc(Cc2ccc(NC(=O)C(C)C)c(O)c2)cc1O,-23%,3,-6%,0.9,0.9,-1.5%
CC(C)N(C(=O)CSc1nnc(CNc2ccc(F)cc2)o1)C(C)C,-2%,0,3%,0.3,-0.2,0.2%
O=C(Nc1cccnc1)c1cc(-c2ccco2)on1,0%,1,7%,11,-0.4,-11%
CCCCN(C)CCn1c(=S)[nH]c2cc(OCC)c(OCC)cc2c1=O,-68%[inhibitor],38,-7%,-0.4,0.7,3.3%
O=C(Nc1ccc(Cl)cc1)c1cc2c(cc1O)[nH]c1ccccc12,-6%[15.4 µM],-7,35µM*,-2.1,-0.3,-0.2%
Cc1cccc(C)c1N1C(=O)CC(N(O)c2ccccc2)C1=O (centres undefined),-33%[inhibitor],35,2%,-0.6,1.7,0.3%
COC(=O)C1=C(C)N(C(C)C)C(=O)C1(NC(=O)c1ccccc1OC)C(F)(F)F (centres undefined),.,-2,.,.,-0.4,-0.6%
Cc1sc2ncnc(SCC(=O)NNC(=O)c3ccco3)c2c1C,?,-6,2%,13,0.9,0.8%
O=C(O)CN1C(=O)/C(=C/c2ccsc2)SC1=S,1%[15.4 µM],10,4%,13,-0.9,.
COc1cc2c(cc1OC)C(COc1ccc3c(C)cc(=O)oc3c1)N(C(=O)c1ccccc1C)CC2 (centres undefined),.,33,.,.,2.9,-24%
COc1ccc(/C=N/NC(=O)c2nc(-c3ccccc3)cc(-c3ccccc3)n2)cc1,18%,-3,-27%,1.9,0.8,?
COC(=O)c1ccc2c(=O)n(CCCCCC(=O)N3CCN(c4cccc(C)c4C)CC3)c(=O)[nH]c2c1,.,-11,.,.,-0.6,-6.6%
COc1ccc(-c2nnc(COc3ccc(Br)cc3C)o2)cc1,?,36,-12%,.,2.1,-3.4%
COc1cc(/C=N/NC(=O)c2cc(C)oc2C)ccc1O,-9%[15.4 µM],2,3%,-4.0,0.7,.
COCCOC(=O)c1ccc(NC(=O)COc2ccc([N+](=O)[O-])cc2)cc1,0%[15.4 µM],-3,.,0.2,-0.3,.
CCc1nnc2c(Nc3cc(OC)c(Cl)cc3OC)nc3ccccc3n12,.,30,.,.,-0.1,-19%
CC(C)Cc1cc(C(=O)Nc2cccc(O)c2)no1,?,17,-4%,0.1,0.8,-1.3%
Cc1nc(-n2cc(F)c(=O)[nH]c2=O)c2nc(C)oc2n1,3%,-18,-5%,2.0,-0.7,-2.5%
Cc1cccc(C(=O)Nc2ccc(NC(=O)CN3CCOCC3)cc2)c1,-3%,-2,6%,1.8,-0.1,.
O=C(COc1ccccc1F)OCC(=O)c1ccc([N+](=O)[O-])cc1,-9%[15.4 µM],39,-5%,.,1.7,-0.1%
Cc1cc(C(=O)NC2CC(C)(C)Cc3c2cnn3-c2ccccc2)n[nH]1 (centres undefined),15%,-7,-10%,.,-0.4,-0.5%
Cc1cccc(NC(=S)NCc2ccc3c(c2)OCO3)c1C,-5%,15,13%,-0.1,-0.7,1.0%
Cc1cccc(N2CC(C(=O)OCC(=O)c3ccc(OC(=O)c4cccs4)cc3)CC2=O)c1C (centres undefined),-1%,15,-7%,0.4,1.0,32µM*
CCN(CC(=O)NC(=O)NC1CCCC1)Cc1ccccc1,8%[15.4 µM],-9,-2%,.,0.9,-9.0%
O=C1C2CCCN2C(=S)N1c1ccc(Cl)cc1 (centres undefined),0%,-8,3%,-1.6,-0.1,.
Cc1c(C(=O)NCc2cccc(Cl)c2)sc2nc[nH]c(=O)c12,.,3,.,.,0.0,22µM*
CCOc1ccc(C2=NNC(c3cccs3)=Nc3ccc(OC)cc32)cc1OCC,-22%,-5,-6%,-0.5,-0.3,-0.4%
COC(=O)c1sccc1NC(=O)Nc1cc(C)cc(C)c1,25%,4,?,.,2.1,-15%
COc1ccc(-n2nc(C(=O)Nc3ccc(Br)cc3C)c3c4ccccc4n(C)c3c2=O)cc1,.,-9,.,.,0.8,-1.1%
O=C(NNC(=S)Nc1ccccc1Cl)C1CC1,10%[15.4 µM],27,8%,1.9,0.2,-2.8%
COc1ccc(-n2c(C)cc(/C=C3\SC(=S)N(Cc4ccco4)C3=O)c2C)cc1,?,8,-2%,?,2.3,-3.3%
Cc1ccc(C(C)NC(=O)c2ccc3c(c2)OCO3)cc1C (centres undefined),22%,5,-4%,.,-0.5,-3.4%
COc1ccc(OC)c(S(=O)(=O)N2CCN(CC(O)CN3CCOCC3)CC2)c1 (centres undefined),-80%[inhibitor],5,?,.,0.0,0.4%
CCNC(=S)N=Nc1c(O)n(Cc2ccc(Cl)cc2)c2ccccc12,13%[15.4 µM],33,-1%,1.3,-0.3,0.4%
CC(C)C(C(=O)NC1CCCC1)N(CC1CCCO1)C(=O)CNS(=O)(=O)c1ccccc1 (centres undefined),1%,11,5%,0.7,0.0,.
O=C(C1=NN(c2ccccc2)C2C(=O)N(c3cccc(Cl)c3)C(=O)C12)c1ccccc1 (centres undefined),-14%[15.4 µM],-5,2%,?,?,18µM*
